VDR inhibitor: inhibitors of human vitamin D receptor; Potency, µM, for inactives: max response, negative = inhibition, most hits filed as inhibitors; VDR-SRC2-3 peptide fluorescence polarization, 2 h; 400,000 tested, 0.93% active; active = well fitted inhibition curve with a large enough effect; inconclusive = small, poorly fitted or top-dose-only effect, or another doubt; inactive = no such curve, though single readings can be large or run the other way; also: series mostly up to about 120 µM
Target sequence (P11473 whole entry, looked up): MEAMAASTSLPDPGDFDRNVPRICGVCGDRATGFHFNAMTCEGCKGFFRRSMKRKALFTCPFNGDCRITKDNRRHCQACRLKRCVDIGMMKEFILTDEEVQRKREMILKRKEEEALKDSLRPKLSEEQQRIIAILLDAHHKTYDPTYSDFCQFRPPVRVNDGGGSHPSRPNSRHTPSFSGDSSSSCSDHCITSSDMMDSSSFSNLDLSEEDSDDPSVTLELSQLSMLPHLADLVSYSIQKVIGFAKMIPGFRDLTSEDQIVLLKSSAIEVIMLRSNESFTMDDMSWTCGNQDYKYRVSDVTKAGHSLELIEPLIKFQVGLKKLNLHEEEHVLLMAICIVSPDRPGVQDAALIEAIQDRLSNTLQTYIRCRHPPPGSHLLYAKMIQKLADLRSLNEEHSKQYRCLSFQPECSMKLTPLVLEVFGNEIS
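Two reagent solutions held at 4 deg C in the dark were dispensed, compounds pinned at 23 nl, and the mixture incubated 2 h at room temperature. Read-out: fluorescence polarization of VDR–SRC2-3 peptide binding.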
Starred values were filed as active, the others as inactive; ? = inconclusive; [ ] = remark or other dose. % is scaled to controls: 0 for no effect and ±100 for the full control effect; potency is read from the fitted curve at half-maximal effect.

SMILES	VDR inhibitor
O=[N+]([O-])c1ccccc1/C=N\Nc1nccs1	-8%
CCOCCn1c(SCCCc2ccccc2)nc2c1c(=O)[nH]c(=O)n2C	6%
CN1C(=O)c2ccc(NC(=O)c3c(F)c(F)c(F)c(F)c3F)cc2C1=O	12%
Cc1ccc(C)c(-c2nnc(NC(=O)Cc3ccc(F)cc3)o2)c1	-6%
COc1cc2ccccc2cc1C(=O)Nc1ccc(Cl)c(-c2nc3ccccc3o2)c1	-5%
COC(=O)c1sccc1NC(=O)Cc1ccc(OC)cc1	-5%
O=C(NC1CCCCCC1)c1ccco1	-7%
O=S(=O)(NCCC1=CCCCC1)c1ccccc1Br	2%
O=C(Nc1nc2ccccc2[nH]1)c1cc2ccccc2o1	8%
O=C(COC(=O)C1CCN(C(=O)Nc2ccccc2)CC1)NCC(F)(F)F	-1%
C[C@H]1CN([C@@H](C)CO)C(=O)c2cc(NC(=O)C3CCCCC3)ccc2O[C@H]1CN(C)Cc1ccc(-c2ccccc2)cc1	15%
CC1(C)CC(C2N3CC4(C)CN2CC(C)(C3)C4=O)CCO1 (centres undefined)	4%
C/C(=N\N=C\c1ccccc1F)c1nnn(-c2nonc2N)c1C	-5%
COc1ccccc1CN1CCCC(C(=O)N(C)Cc2ccccc2)C1 (centres undefined)	-14%
Nn1c(SCC(=O)N2CCN(S(=O)(=O)c3ccc(Cl)cc3)CC2)nnc1-c1cccs1	4%
CC(C)(C)SCCNC(=O)CSc1ccccc1	19%
CCCCCCSc1ccc([C@H]2N[C@@](Cc3ccccc3)(C(=O)OC)[C@H]3C(=O)N(C)C(=O)[C@@H]23)cc1	-7%
CCOC(=O)C1=CN(C)C=C(C(=O)OCC)C1c1ccsc1	-21%
CSc1ccc(Cl)c(C(=O)OCC(=O)N2CCN(C(=O)c3ccco3)CC2)c1	-10%
COc1ccc(C/C(N)=N/OC(=O)Cc2ccc(OC)c(OC)c2)cc1	7%
COCc1ccc(C(=O)NC2CCCc3c2cnn3-c2ccc(C)c(C)c2)o1 (centres undefined)	1%
COc1ccc(S(=O)(=O)Cc2ccc(C(=O)N3CCN(c4ccccc4)CC3)o2)cc1	12%
CCOC(=O)c1cccc(NC(=O)C2CCCN(S(=O)(=O)c3c(C)nn(C)c3C)C2)c1 (centres undefined)	-13%
CCOC(=O)/C=C1\SCC(=O)N1Cc1nnc(-c2ccccc2Br)o1	-7%
COCCNC(=O)Cn1cnc([N+](=O)[O-])n1	-14%
COc1ccc(-c2nonc2NC(=O)c2oc3ccccc3c2C)cc1OC	-19%
Brc1ccc(-c2ccc(/C=N/Nc3nc4ccccc4[nH]3)o2)cc1	7%
Cc1ccc(C(OC(=O)c2ccco2)C(=O)NC2CCCC2)cc1 (centres undefined)	8%
COc1ccc(C(=O)Nc2nc(CC(=O)NCCc3ccccc3)cs2)cc1	-3%
Cc1ccc2cc(CN(CC3CCCO3)C(=O)C(C)C)c(=O)[nH]c2c1 (centres undefined)	-10%
O=C(N/N=C/c1cc(Cl)cc([N+](=O)[O-])c1O)c1cccc(S(=O)(=O)N2CCOCC2)c1	-14%
COc1cc(OC)cc(-c2nc3nc(C)c(CCC(=O)Nc4ccccc4)c(C)n3n2)c1	-11%
Cn1c(=O)c2c(ncn2CC(=O)N2CCN(c3ccc(F)cc3)CC2)n(C)c1=O	-15%
CCN(CC)CCn1c(NC(=O)c2ccc(C(F)(F)F)cc2)nc2ccccc21	6%
CC(C)(C)c1cc[n+](C2=C([O-])c3ccccc3C(=O)/C2=N\S(=O)(=O)c2cccs2)cc1	0%
CCOC(=O)C1CCN(C(=O)C2(NC(=O)Nc3cccc(F)c3)CCCCC2)CC1	-2%
CCOc1cc(/C=N/NS(=O)(=O)c2ccc(OC)cc2)ccc1OCCN1CCOCC1	-8%
CC1(C)CC(=O)C=C(C(=O)NC2CCCc3c2cnn3-c2cc(F)cc(F)c2)O1 (centres undefined)	-6%
C[C@@H]1CN(Cc2nc(-c3cnccn3)no2)C[C@H](C)O1	8%
Cc1csc(=O)n1CC(=O)OCC(=O)NCc1ccc(Cl)cc1Cl	2%

6 of the entries above in order of the VDR inhibitor value, ascending.
SMILES	VDR inhibitor
CCOC(=O)C1=CN(C)C=C(C(=O)OCC)C1c1ccsc1	-21%
CCOc1cc(/C=N/NS(=O)(=O)c2ccc(OC)cc2)ccc1OCCN1CCOCC1	-8%
C/C(=N\N=C\c1ccccc1F)c1nnn(-c2nonc2N)c1C	-5%
Nn1c(SCC(=O)N2CCN(S(=O)(=O)c3ccc(Cl)cc3)CC2)nnc1-c1cccs1	4%
CCOCCn1c(SCCCc2ccccc2)nc2c1c(=O)[nH]c(=O)n2C	6%
O=C(Nc1nc2ccccc2[nH]1)c1cc2ccccc2o1	8%

Other compounds follow.
SMILES	VDR inhibitor
O=C(NCc1ccc2c(c1)OCO2)C1CC(=O)N(CCc2ccc(F)cc2)C1 (centres undefined)	-8%
COc1ccc(/C=C(/NC(=O)c2ccco2)C(=O)NCc2ccco2)cc1OC	6%
COc1cccc(C2Nc3c(F)cc(Br)cc3C3C=CCC32)c1OC (centres undefined)	-4%
Cc1nc2scc(-c3cccs3)c2c(=O)n1N	3%
CCCn1nnc2c(=O)oc3ccccc3c21	-15%
CNC(=O)C(Sc1ccccc1)c1ccccc1 (centres undefined)	7%
CCOC(=O)Cn1c(=O)c2c(nc(N3CCCCC3)n2C)n(C)c1=O	18%
COc1ccc(C(=O)Nc2ccc(NC(=O)C3CC3)nc2)cc1	46%[activator]
O=S1(=O)[C@H]2C[C@H](CO)O[C@@]2(CO)CN1Cc1ccc(-c2cccc(Cl)c2)cc1	13%
NS(=O)(=O)c1cccc(NC(=O)COC(=O)Cc2ccc(S(=O)(=O)N3CCCCC3)s2)c1	-24%
CC(C)Cn1c(=O)c2sccc2n2c(CCCC(=O)N3CCC(N4CCCCC4)CC3)nnc12	-3%
Cc1ccc2c(c1)-c1c(ssc1=S)C(C)(C)N2C(=O)CN1C(=O)c2ccccc2C1=O	-5%
CCc1nnc(NC(=O)C2CCN(c3cnccn3)CC2)s1	-9%
COc1ccc(N2C(=O)C3CCCN3C2c2cccc(F)c2)cc1Cl (centres undefined)	-8%
CC1Cc2ccccc2N1C(=O)COC(=O)/C=C/c1ccc(F)cc1 (centres undefined)	-1%
CCC(C)NC(=O)C1c2ccccc2C(=O)N(c2ccc(OC)cc2)C1c1ccc(OC)cc1 (centres undefined)	?
CC(=O)N1CCc2cc(CNS(=O)(=O)c3ccccc3C(F)(F)F)ccc21	-4%
O=C(CSC(=S)N1CCCC1)N(Cc1nnc(-c2ccccc2Cl)o1)C1CC1	1%
O=C(CN1CCN(Cc2ccccc2Cl)CC1)N/N=C/c1ccccn1	-14%
CCOc1ccc(NC(=O)c2ccco2)cc1	-1%

Ordered by molecular weight (smallest number first): part of the list above
SMILES	VDR inhibitor
CCOc1ccc(NC(=O)c2ccco2)cc1	-1%
CCc1nnc(NC(=O)C2CCN(c3cnccn3)CC2)s1	-9%
COc1cccc(C2Nc3c(F)cc(Br)cc3C3C=CCC32)c1OC (centres undefined)	-4%
CCC(C)NC(=O)C1c2ccccc2C(=O)N(c2ccc(OC)cc2)C1c1ccc(OC)cc1 (centres undefined)	?
Cc1ccc2c(c1)-c1c(ssc1=S)C(C)(C)N2C(=O)CN1C(=O)c2ccccc2C1=O	-5%
CC(C)Cn1c(=O)c2sccc2n2c(CCCC(=O)N3CCC(N4CCCCC4)CC3)nnc12	-3%
NS(=O)(=O)c1cccc(NC(=O)COC(=O)Cc2ccc(S(=O)(=O)N3CCCCC3)s2)c1	-24%

(cont.)
SMILES	VDR inhibitor
O=C1C2C3CCC(CC3)C2C(=O)N1c1ccccc1 (centres undefined)	9%
C[C@@H](C(=O)NCCCCCC(=O)O)n1nnc2ccccc2c1=O	5%
O=c1cc(-c2ccccc2)[nH]c2ccc(Cl)cc12	0%
Nc1c(C(=O)Nc2ccccc2Cl)c2ccccn2c1C(=O)c1ccc(Cl)cc1	10%
Cc1ccc(S(=O)(=O)c2cn(C)c3cc(N4CCCC(C)C4)c(F)cc3c2=O)c(C)c1 (centres undefined)	16%
COC(=O)c1ccccc1NC(=O)CSc1nc(-c2ccco2)cc(C(F)(F)F)n1	3%
CC(C)NC(=O)NC(=O)COC(=O)c1c2c(nc3ccccc13)CCC2	-18%
CC(=O)NC1=NC(=O)/C(=C/c2cc(C)n(-c3cccc(C(=O)O)c3)c2C)S1	-9%
CN1CCN(c2nc(-c3cccs3)cc(C(F)(F)F)n2)CC1	13%
Cc1cc(C)c2c(=O)cc(C(=O)Nc3sc4c(c3C(=O)NCC3CCCO3)CCCC4)oc2c1 (centres undefined)	6%
OCCN1CCN(c2nc(-c3ccccc3)nc3c2oc2ccccc23)CC1	-10%
C[C@@H]1CN([C@H](C)CO)C(=O)c2cc(NS(=O)(=O)c3ccc(F)cc3)ccc2O[C@@H]1CN(C)Cc1ccc(Cl)c(Cl)c1	0%
O=C(Cn1c(C(=O)O)cc2ccccc21)c1ccccc1	-4%
CN1CCN(C(=O)c2cnn(-c3ccccc3)c2NC(=O)c2ccc(Br)cc2)CC1	-2%
CC(c1ccco1)N(C(=O)c1ccc(S(=O)(=O)N2CCCCC2)cc1)c1ccccn1 (centres undefined)	-14%
O=C(Nc1cccc(S(=O)(=O)N2CCCCCC2)c1)c1cncc(Br)c1	-7%
COCCCN(C(=O)c1cc2c(s1)CCCCC2)c1c(N)n(Cc2ccccc2)c(=O)[nH]c1=O	-11%
O=C(CCC(=O)Nc1ccc(Br)cc1)N/N=C/c1cc([N+](=O)[O-])ccc1O	14%
CN(CC(=O)NNC(=O)c1cccnc1)S(=O)(=O)c1cc(Cl)ccc1Cl	-5%
COc1ccc2c(c1)c(C(C)=O)c(C)n2-c1ccccc1	18%
O=c1cc(-c2cc(O)c(O)c([C@@H]3O[C@H](CO)[C@@H](O)[C@H](O)[C@H]3O)c2)oc2cc(O[C@@H]3O[C@H](CO)[C@@H](O)[C@H](O)[C@H]3O)cc(O)c12	6%
CCC1CCCN1Cn1cnc2c([nH]c3ccccc32)c1=O (centres undefined)	-9%
Cc1ccc(C2(C(F)(F)F)NC(=O)N3CCCN=C3S2)cc1 (centres undefined)	8%
CCCCn1c(-c2nn(C)c(C)c2Cl)n[nH]c1=S	1%
O=C(Cn1cnc2ccccc21)N/N=C/c1ccco1	-12%
COc1ccc(/C(N)=N/OC(=O)Cc2ccc(OC)c(OC)c2)cc1	7%
Nc1nonc1-c1nc2ccccc2n1CC(=O)N1CCN(c2ccc(F)cc2)CC1	-9%
CCCCN(C(=O)Cc1cccs1)c1nnc(-c2cccnc2)s1	10%
Cc1ccccc1NC(=O)C1C2CC/C=C\CCC21 (centres undefined)	-18%
COC(=O)c1ccccc1NC(=O)Cn1c(=O)n(CCC(=O)NCc2ccccc2OC)c(=O)c2ccccc21	-17%
O=C1NC(=O)/C(=C/c2ccccc2Cl)N1	4%
CC1CCCCC1NC(=O)C1CCC(CNS(=O)(=O)c2cccc3cccnc23)CC1 (centres undefined)	16%
CCOc1ccc(S(=O)(=O)c2cn(C)c3ccccc3c2=O)cc1	-9%
COc1ccc(CCNC(=O)C(=O)NCC(c2ccc3c(c2)OCO3)N2CCOCC2)cc1 (centres undefined)	20%
O=C(c1cccc(N2CCCC2=O)c1)N1CCN(c2cccc(Cl)c2)CC1	2%
Cc1cccc(NC(=O)c2ccc3oc(=O)c(S(=O)(=O)c4ccc(F)cc4)cc3c2)c1C	-12%
Cc1csc2c(=O)n(CCO)c(=O)[nH]c12	17%
Cc1nn(-c2ccccc2)c(C)c1NC(=O)COC(=O)c1cc(Cl)ccc1O	3%
O=C(COC(=O)c1ccc2c(c1)C(=O)N(Cc1ccco1)C2=O)NCC(F)(F)F	18%
CC1(C)Cc2c(sc3ncn4nc(-c5ccco5)nc4c23)CO1	19%
O=C(NCCS(=O)(=O)N1CCN(c2ccccc2F)CC1)c1ccc(Br)cc1	-14%
CC(C)(C)NC(=O)NC12CC3CC(CC(C3)C1)C2	-21%
CCCCCc1c(C)[nH]c2nc3ccccc3n2c1=O	-7%
COCCN(C(=O)c1snc(C(N)=O)c1N)C(C(=O)NC1CCCCC1)c1ccc(F)cc1 (centres undefined)	3%
COc1ccc2c(c1)c(N=O)c(O)n2C	-5%
O=C1CCCN1CCCNS(=O)(=O)c1ccccc1	6%
CCC(OC(=O)CN1C(=O)c2ccccc2C1=O)C(=O)NC1CCCC1 (centres undefined)	18%
COc1cc(CNCCN2CCOCC2)ccc1OCc1ccccc1Cl	17%
CC(NC(=O)/C(=C\c1ccco1)NC(=O)c1ccco1)C(=O)O (centres undefined)	-16%
Nc1c(S(=O)(=O)O)cc(Nc2ccc(Nc3nc(Cl)nc(Nc4ccc(S(=O)(=O)O)cc4)n3)c(S(=O)(=O)O)c2)c2c1C(=O)c1ccccc1C2=O	?
C/C=C(/C)C(=O)O[C@H]1C[C@@]2(C)O[C@H]2[C@@H](OC(C)=O)C2(C)CC[C@@](O)(C(C)C)C12 (some centres undefined)	1%
COc1ccc(CN2CC(C(=O)NCCc3ccc(Cl)cc3)CC2=O)cc1 (centres undefined)	-3%
O=C(COC(=O)CCCOc1ccc(Cl)cc1Cl)NCc1ccccc1	-12%
Cc1cc(C(=O)COC(=O)c2ccc(O)cc2O)c(C)n1-c1ccccc1	-1%
Cc1ccc(-n2nc(C)c(C(=O)O)c2-n2cccc2)cc1	14%
Cc1cc(C)c[n+](CC(=O)c2cc3ccccc3oc2=O)c1	-2%
CC(=O)c1cc(F)c(N2CCN(CCC#N)CC2)cc1C	7%

Screening results (PubChem BioAssay)

Some of the compounds tested; count on the stated rates, not on these rows.
